# VDR inh: vitamin D3 receptor (human) inhibition | P11473 | VDR-SRC2-3 peptide fluorescence polarization, 2 h | Potency, µM, for inactives: max response, negative = inhibition, hits mostly inhibitors | 400,000 compounds, 0.93% hits | AID 504847; active = well fitted inhibition curve with a large enough effect; inconclusive = small, poorly fitted or top-dose-only effect, or another doubt; inactive = no such curve, though single readings can be large or run the other way; note: series mostly up to about 120 µM
# Target sequence (P11473 whole entry, looked up): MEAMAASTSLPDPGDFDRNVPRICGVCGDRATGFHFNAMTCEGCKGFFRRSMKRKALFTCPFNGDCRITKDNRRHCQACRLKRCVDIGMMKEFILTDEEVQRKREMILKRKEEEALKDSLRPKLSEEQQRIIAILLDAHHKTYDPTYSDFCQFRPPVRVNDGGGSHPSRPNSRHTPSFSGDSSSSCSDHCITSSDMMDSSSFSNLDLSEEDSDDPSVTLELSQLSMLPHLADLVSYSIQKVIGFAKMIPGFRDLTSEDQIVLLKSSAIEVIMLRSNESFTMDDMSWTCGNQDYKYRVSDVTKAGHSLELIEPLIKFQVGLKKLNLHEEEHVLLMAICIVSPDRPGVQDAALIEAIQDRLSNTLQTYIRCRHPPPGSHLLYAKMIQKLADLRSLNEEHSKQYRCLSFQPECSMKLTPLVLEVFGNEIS
#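 Measured by FP: displacement of SRC2-3 coactivator peptide from VDR by library compounds, following a two-hour ambient incubation.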
# * marks the source's active call; other numbers are inactive results; ? = inconclusive; & = joins results of further samples. % is set by controls: 0 for no effect and ±100 for the full control effect; potency is the fitted concentration of half-maximal effect. This is a subset, so the mix of outcomes need not match the whole.
entry | VDR inh | Structure
1 | 0% | CCOCCn1c(=NC(=O)c2ccc3c(c2)OCCO3)sc2cc(OCC)ccc21
2 | -13% | COc1cccc(C(=O)Nc2ccc3[nH]c(=O)[nH]c3c2)c1OC
3 | 3% | CCOC(=O)CC1C(=O)NCCN1Cc1cccc(OC)c1 (stereo not given)
4 | 13% | CCOc1ccc(S(=O)(=O)NCCC(=O)Nc2nnc(C)s2)cc1
5 | -4% | O=C1c2c(O)cc(O)cc2O[C@@]12c1c(cc(O)c3c1O[C@H](c1ccc(O)cc1)[C@@H](O)C3)O[C@@H]2c1ccc(O)cc1
6 | -6% | CCCCN1C(=O)N(CCc2ccc(F)cc2)S(=O)(=O)c2cc(C(F)(F)F)ccc21
7 | -13% | O=S(=O)(NC1CC1)c1ccc(F)c(F)c1
8 | -12% | COc1ccc(OC)c(C(=O)CSc2nnc(-c3cccs3)o2)c1
9 | 0% | O=C1C2C(c3ccccc3)CC=CC2C(c2ccc(C(F)(F)F)cc2)N1Cc1ccccc1 (stereo not given)
10 | -4% | COc1ccc(C(=O)Nc2cc(C(=O)NCCc3ccccc3)ccc2Cl)cc1
11 | -4% | COc1cc(NC(=O)c2[nH]cnc2C(N)=O)cc(C(=O)Nc2cccc(C(F)(F)F)c2)c1
12 | -1% | CCCn1c(N)c(C(=O)CSc2nnc3ccccn23)c(=O)[nH]c1=O
13 | 2% | COc1ccc(NC(C)=O)cc1NC(=O)CN1CCN(C2c3ccccc3-c3ccccc32)CC1
14 | ? | CCCOc1ccc(-c2c(C(=O)N/N=C/c3ccc(OCC)cc3)nnn2-c2nonc2N)cc1
15 | -10% | O=C(Nc1ccc2c(c1)CCC2)c1cc(=O)[nH]c2ccccc12
16 | 0% | CCOC(=O)c1c(NC(=O)CSc2ncccn2)sc2c1CC(C)(C)NC2(C)C
17 | 6% | CN(C(=O)c1ccc(S(=O)(=O)N2CCCC2)cc1)C1CCS(=O)(=O)C1 (stereo not given)
18 | 14% | CCOC(=O)c1cc([N+](=O)[O-])sc1N
19 | 4% | Cc1ccc2nc(NC(=O)CS(=O)(=O)Cc3ccccc3)sc2c1
20 | 2% | CC[C@H](C)[C@H](NC(=O)[C@H](Cc1ccccc1)NC(=O)[C@H](CC(C)C)NC(=O)[C@H](CCSC)NC(=O)[C@H](CCC(=O)O)NC(=O)[C@H](CCC(=O)O)NC(=O)[C@H](CC(=O)O)NC(=O)[C@H](CO)NC(=O)[C@@H]1CCCN1C(=O)[C@H](CCCCN)NC(=O)[C@@H](N)[C@@H](C)O)C(=O)N[C@@H](Cc1ccc(O)cc1)C(=O)NCC(=O)N[C@@H](Cc1cnc[nH]1)C(=O)N[C@@H](Cc1ccc(O)cc1)C(=O)N[C@@H](CCCCN)C(=O)N[C@@H](CCC(N)=O)C(=O)N[C@@H](C)C(=O)N[C@H](C(=O)N[C@H](C(=O)NCC(=O)N[C@@H](CC(=O)O)C(=O)N[C@H](C(=O)N[C@@H](CC(N)=O)C(=O)N[C@H](C(=O)N[C@@H](CCC(=O)O)C(=O)N[C@@H](CCCNC(=N)N)C(=O)N1CCC[C@H]1C(=O)NCC(=O)N[C@@H](CCSC)C(=O)N[C@@H](CC(C)C)C(=O)N[C@@H](CC(=O)O)C(=O)N[C@@H](Cc1ccccc1)C(=O)N[C@H](C(=O)O)[C@@H](C)O)[C@@H](C)O)[C@@H](C)CC)C(C)C)[C@@H](C)O
21 | -6% | O=C(CSc1n[nH]c(-c2cccnc2)n1)Nc1ccccc1C(F)(F)F
22 | -8% | N#Cc1ccc(CSc2nnc(NC(=O)CN3C(=O)C4CC=CCC4C3=O)s2)cc1 (stereo not given)
23 | -2% | CN(/N=C/c1ccncc1)C1=NCCN1
24 | -8% | CCCNC(=O)NCCC12CC3CC(CC(C3)C1)C2
25 | -18% | CC(C)NC(=S)N/N=C/c1ccc(N2CCOCC2)cc1
26 | 6% | CC(C)[C@H](NC(=O)c1ccc(Cl)cc1Cl)C(=O)NNc1cccc(C(=O)O)c1
27 | -2% | O=C1CN(c2ccccc2Cl)C(=O)CN1c1ccccc1Cl
28 | 12% | CC1CCCC(C)N1C(=O)COC(=O)c1cccc(S(=O)(=O)N(C)c2ccccc2)c1 (stereo not given)
29 | -20% | O=C(N[C@H]1C/C=C\C[C@@H](CC(=O)N(CCO)Cc2ccccc2)C(=O)N[C@H](Cc2c[nH]c3ccccc23)COC1=O)OCC1c2ccccc2-c2ccccc21
30 | ? | O=C1CC(c2ccccc2)CN1C(=O)c1cncc(Br)c1 (stereo not given)
31 | ? | Fc1cc(F)cc(-c2c(-c3ccccc3)ncc3ccc(F)cc23)c1
32 | 8% | O=C(NCc1ccccc1)c1ccc(CS(=O)(=O)Cc2ccc(F)cc2)o1
33 | -10%&6% | COC(=O)c1nnn(CC(=O)NC(=O)Nc2c(C)cccc2C)c1C(=O)OC
34 | -7% | CC(C)c1nnc(NC(=O)CCS(=O)(=O)c2ccccc2)s1
35 | -16% | CCCSc1oc(-c2ccco2)nc1S(=O)(=O)c1ccccc1
36 | -16% | CC[C@@]12C(=O)N(c3cccc(F)c3)C(=O)N1[C@H](c1cccc(C)c1)[C@@H]1C(=O)N(Cc3ccccc3)C(=O)[C@@H]12
37 | -13% | Oc1ccc(-c2cnc(-c3ccc(O)cc3)nc2)cc1
38 | -4% | CCOc1ccc(C(=O)OCc2cc(=O)n3nc(C4CC4)sc3n2)cc1
39 | -10% | Cc1cccc(-n2c(C)nc3ccsc3c2=O)c1
40 | -25%&4% | Cn1c(=O)c(=O)n(C)c2cc(N3CCOCC3)c(NS(=O)(=O)c3ccc(F)c(Cl)c3)cc21
41 | -5% | CCc1ccc(N=CC2=C(O)CC(c3ccco3)CC2=O)cc1 (stereo not given)
42 | 0% | COc1ccc(-c2n[nH]c(=S)n2N)c(OC)c1
43 | ? | Cc1noc(/C=C/N(C)C)c1S(=O)(=O)N1CCCC(C(=O)NCCC2=CCCCC2)C1 (stereo not given)
44 | 2% | Cc1ccc(C)c(N2CCN(C(c3ccc(N(C)C)cc3)c3nnnn3C(C)(C)C)CC2)c1 (stereo not given)
45 | -11% | O=C(O)CCCC(=O)Nc1cccc(C(F)(F)F)c1
46 | -6% | CSc1ccccc1NC(=O)CN(C)C(=O)c1ccc(NC(=O)c2cccs2)cc1
47 | 4% | CCN(CC)c1ccc(C(=O)N2CCC(c3c[nH]c4ccccc34)(c3c[nH]c4ccccc34)CC2)cc1
48 | 7% | O=P1(O)C=C(c2ccccc2)NC(c2ccccc2)=C1
49 | 0% | O=C1c2ccncc2C(=O)N1CO
50 | 8% | Cc1ccc(C)c(CSc2nc3ccncc3n2CC(=O)Nc2ccc(N(C)C)cc2)c1

# Additional records follow:
entry | VDR inh | Structure
51 | 0% | Cc1cc(NC(CC(C)C)C(=O)O)nc(Cc2ccccc2)n1 (stereo not given)
52 | -7% | O=C(CCC(=O)N1CCSc2ccccc21)NCc1cccc(Cl)c1
53 | 1% | CSc1nc2ccccc2n1CC(=O)Nc1ccccc1
54 | 6% | CC[C@]12C(=O)N(C)C[C@H]([C@@H]3C(=O)N(Cc4ccccc4)C(=O)[C@@H]31)N2C(=O)c1ccc(C(C)(C)C)cc1
55 | 7% | Cc1ccc(-c2noc(CNCCCN(C)C)n2)cc1
56 | -13% | O=C(CN1CCc2cc3c(cc2C1)OCCCO3)Nc1cccc([N+](=O)[O-])c1
57 | -5% | CCOC(=O)CSc1nc2ccccc2n1C(=O)OCC
58 | -21% | CCOP(=O)(OCC)C(Nc1cccc(C)c1)c1ccc(F)cc1 (stereo not given)
59 | -15% | CCc1ccc2oc(-c3cc(NC(=O)c4cc([N+](=O)[O-])ccc4N4CCOCC4)ccc3Cl)nc2c1
60 | 3% | N/C(=N\OC(=O)CCc1ccccc1)c1ccccc1Cl
61 | -1% | S=c1[nH]nc(-c2ccccn2)n1/N=C/c1ccco1
62 | -10% | c1ccc(-c2onc3c2CCCC3)cc1
63 | -9% | COc1ccc(N2CCN(C(=O)COC(=O)Cc3c(F)cccc3Cl)CC2)cc1
64 | -25% | Cc1ccc(-c2csc3ncnc(N4CCN(C(=O)c5ccco5)CC4)c23)cc1
65 | 16% | Cc1onc(-c2ccc(Cl)cc2)c1-c1ccnn1S(=O)(=O)c1ccc(Cl)cc1
66 | 18% | COc1cccc(/C=N/NC(=O)c2ccc(=O)[nH]n2)c1O
67 | 20% | CC(C)c1ccc(NC(=O)c2ccc(F)c(S(=O)(=O)N3CCCC3)c2)cc1
68 | -6% | Cc1ccc(Oc2ccc(OCC(=O)NC3CCS(=O)(=O)C3)cc2)cc1 (stereo not given)
69 | -1% | CCC(=O)OCCn1c(=O)c2cc3c(=O)n(CCOC(=O)CC)c(=O)c3cc2c1=O
70 | 16% | CCCC(c1nnnn1CS(=O)(=O)c1ccc(C)cc1)N1CCN(CC)CC1 (stereo not given)
71 | 7% | O=C(Nc1nnc(C2CCCCC2)s1)C1CCN(C(=O)c2ccco2)CC1
72 | 18% | N#CC(C(=O)NCc1ccco1)c1nc2ccccc2nc1N1CCOCC1 (stereo not given)
73 | -1% | COC(=O)c1ccccc1NC(=O)C1CCCCC1C(=O)O (stereo not given)
74 | -9% | CCCc1cc(=O)oc2cc(C)cc(OC(C)C(=O)NCCCn3ccnc3)c12 (stereo not given)
75 | 2% | CCC1CCCCN1CCCNC(=O)COc1cc(=O)n(C)c2ccccc12 (stereo not given)
76 | -7% | Cc1nc2nc(SCC(=O)c3cccc([N+](=O)[O-])c3)[nH]c2cc1Br
77 | 13% | COc1ccc(NC(=O)/C=C\C(=O)N(c2ccc(C(C)C)cc2)C(C(=O)NCc2ccco2)c2ccc(F)cc2)cc1 (stereo not given)
78 | -10% | CCCCC(CC)C1OCC(CN2CCCC2)O1 (stereo not given)
79 | 2% | Cc1ccc(S(=O)(=O)N2CCOCC2)cc1NC(=O)COC(=O)C1=COCCO1
80 | 5% | CCOC(=O)CNC(=O)Cn1cnc2c(cnn2-c2ccc(C)cc2)c1=O
81 | -15% | CN1CCN(c2ccccc2NC(=O)c2cc(Br)ccc2Cl)CC1
82 | 14% | Cc1ccc(C(=O)N/N=C/c2ccc3c(c2)OCO3)o1
83 | -1% | CCCOc1cc(C)c(S(=O)(=O)n2nnc3ccccc32)cc1C
84 | -7% | O=C(O)CCCC(=O)Nc1cc([N+](=O)[O-])ccc1O
85 | -7% | CC(NC(=O)c1ccccc1)C(=O)NNC(=O)c1ccccc1Cl (stereo not given)
86 | 7% | CC(C)C[C@@H](CC(=O)N[C@H](CC(=O)N[C@@H]1CCCC[C@H]1C(=O)N[C@H](CC(=O)N[C@@H](CCC(=O)O)CC(=O)O)Cc1ccccc1)C(C)C)NC(=O)[C@@H]1CNCC[C@H]1N
87 | 2% | CCc1cccc(NC(=O)CCC(=O)O)c1
88 | -2% | Cn1c(=O)c2c(nc(CN3CCC(C(N)=O)CC3)n2CCc2ccccc2)n(C)c1=O
89 | 6% | C#CCOCCOCCOCCNc1nc(N2CCN(C(=O)[C@H]([C@@H](C)CC)n3cc([C@@H](N)CO)nn3)CC2)nc(N2CCN(C(=O)[C@H](CCCCN)n3cc([C@@H](N)CO)nn3)CC2)n1
90 | 12% | CCOC(=O)c1c(C)[nH]c(C(=O)OCc2ccc(C)cc2)c1C
91 | 10% | CC(C)c1ccc(Nc2ncccc2C#N)cc1
92 | -20% | CCCNC(=O)c1ccc2c(c1)nc(C)n2-c1cccc(Cl)c1
93 | -1% | COCCn1c(=O)[nH]c2cc(C(=O)Nc3ccc(OC)c(Cl)c3)ccc2c1=O
94 | 79µM* | O=C(Oc1ccc(Br)cc1C(=S)N1CCOCC1)c1ccc(F)cc1
95 | ? | N#Cc1ccc(CC(=O)c2ccccc2)[nH]c1=O
96 | -9% | Nc1cccc(C(=O)OCC(=O)NC2CCCc3ccccc32)c1 (stereo not given)
97 | 15% | COc1ccc(C(=O)/C=C/Nc2ccc(C)cn2)cc1OC
98 | -6% | COc1ccc(C2=CSC3=NCCN23)cc1OC
99 | -8% | Cc1ccccc1OCC(=O)OCC(=O)NC1CC1
100 | -9% | CCCCCCNC(=O)CC(c1ccccc1)c1cc(Br)ccc1O (stereo not given)

# (cont.)
entry | VDR inh | Structure
101 | -12% | CCc1ccc(OCC(=O)Nc2ccc(Cl)c(-c3nc4cc(C)cc(C)c4o3)c2)cc1
102 | -1% | CCOC(=O)N1CCC(NC(=O)CCC(=O)N2CC(C)Oc3ccccc32)CC1 (stereo not given)
103 | -3% | Cc1ccc(-n2c(SCC(=O)NC3CCS(=O)(=O)C3)nc3ccccc3c2=O)cc1C (stereo not given)
104 | 0% | CC1CCCN(C(=O)C(=O)c2cn(CC(=O)N3CCCCCC3)c3ccccc23)C1 (stereo not given)
105 | -6% | CN(C)CCCN1c2ccccc2Sc2ccc3ccccc3c21
106 | 3% | CC(C)CNC(=O)COC(=O)c1cccc(S(=O)(=O)NCC(F)(F)F)c1
107 | -9% | COc1ccccc1C(=O)Nn1c(C2CCC2)nc2ccccc2c1=O
108 | 7% | COCc1nnc(NS(=O)(=O)c2ccccc2)s1
